Screening results as filed in PubChem.
Cruzain inh noDet – cruzain (T. cruzi) inhibition without detergent; P25779; purified cruzain, Z-FR-AMC fluorescence, no detergent; Potency, µM, inactives show max response, negative = inhibition, usual class: inhibitors; 200,000 compounds, 2.3% hits; AID 1476;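 further: plate controls were enzyme without inhibitor for no effect and buffer without enzyme for full effect; nearly all actives have a fitted effect of over 40% in size; top concentration of the series not given in the record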
Target sequence (P25779 123-467 limits assumed): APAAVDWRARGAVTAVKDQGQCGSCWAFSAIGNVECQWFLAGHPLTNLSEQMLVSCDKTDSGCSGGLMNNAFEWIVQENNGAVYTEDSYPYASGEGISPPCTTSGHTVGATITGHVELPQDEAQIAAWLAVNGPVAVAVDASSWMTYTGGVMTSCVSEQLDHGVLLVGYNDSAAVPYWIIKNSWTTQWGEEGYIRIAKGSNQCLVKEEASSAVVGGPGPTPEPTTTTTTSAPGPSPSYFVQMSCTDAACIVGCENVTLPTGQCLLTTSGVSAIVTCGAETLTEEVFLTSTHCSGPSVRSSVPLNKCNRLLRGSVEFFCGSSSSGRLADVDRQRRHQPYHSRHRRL
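Purified cruzain at 1.5 nM, pre-incubated 15 min with compound at room temperature in 100 mM sodium acetate pH 5.5, 5 mM DTT, 0.00005% Triton X-100. Reaction started with 2 uM Z-FR-AMC; AMC fluorescence increase over 60 s gives rate.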
SARS PLP yeast – blocks SARS-CoV papain-like protease in a yeast assay; S. cerevisiae expressing SARS-CoV PLpro, growth rescue; control for the full effect not named in the record; Potency, µM (series often up to 32.9 µM), for inactives: top-dose activity, positive = growth rescue; 330,000 compounds, 0.19% hits; active means well fitted rising curve with a large enough effect; inconclusive means small, poorly fitted or top-dose-only effect; inactive means no such curve, though single readings can be large or run the other way; further: 0% is about no effect; nearly all actives have a fitted effect of over 55% in size; growth read by luminescence after 48 h
LASV entry inh – blocks Lassa virus binding to or entry into cells; Potency, µM (highest dose often 37.9 µM), inactives show top-dose activity change, negative = inhibition, hits mostly inhibitors; Lassa virus pseudotype entry inhibition, cell reporter; control for the full effect not named in the record; 300,000 compounds, 1.2% hits; active means well fitted inhibition curve with a large enough effect; inconclusive means small, poorly fitted or top-dose-only effect, or effect the other way; inactive means flat fitted curve, though single readings scatter; tested in HEK293 cells; further: on the % scale 0 is the no-effect control and ±100 the full control effect; nearly all actives have a fitted effect of over 50% in size; luciferase read-out
Cruzain inh Det – inhibitors of Trypanosoma cruzi cruzain with detergent; P25779; purified cruzain, Z-FR-AMC fluorescence, 0.01% Triton; Potency, µM, inactives show max response, negative = inhibition, usual class: inhibitors; 200,000 compounds, 0.43% hits;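 further: plate controls were neutral wells for no effect and buffer without enzyme for full effect; nearly all actives have a fitted effect of over 40% in size; top concentration of the series not given in the record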
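Compounds were screened in titration against cruzain (1.5 nM) with 0.01% Triton X-100 to counter colloidal aggregation. Activity was the AMC fluorescence increase over 60 s after adding 2 uM Z-FR-AMC at pH 5.5.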
NS1 function inh – influenza NS1 inhibition; S. cerevisiae slowed by influenza A NS1, growth recovery by OD600; Potency, µM (doses to about 46.1 µM), inactives show at the highest dose activity, positive = more growth; 270,000 compounds, 0.4% hits; active means well fitted rising curve with a large enough effect; inconclusive means small, poorly fitted or top-dose-only effect; inactive means no such curve, though single readings can be large or run the other way; further: nearly all actives have a fitted effect of over 50% in size
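In this qHTS, NS1 from influenza A is expressed in budding yeast, where it slows growth. Cells are switched from glucose to 2% galactose medium (pH 6.0, -URA), treated with compound, and growth recovery is read at OD600.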
Marburg entry inh – inhibitors of Marburg virus binding or cell entry | Potency, µM (titrated, usually from 37.8 µM), without a hit: top-dose activity change, negative = inhibition, hits mostly inhibitors | AID 540276 | 300,000 compounds, 1.8% hits | Marburg virus pseudotyped entry inhibition, cell reporter; control for the full effect not named in the record; about a third of the inactives were read at about 46 µM; active = well fitted inhibition curve with a large enough effect; inconclusive = small, poorly fitted or top-dose-only effect, or effect the other way; inactive = flat fitted curve, though single readings scatter; tested in HEK293 cells; about a fifth of its hits are not listed in these tables; further: on the % scale 0 is the no-effect control and ±100 the full control effect; luciferase read-out
RE007 growth inh – less growth of the S. pombe RE007 Vpr strain; S. pombe RE007 Vpr strain, BacTiter-Glo ATP luminescence, 24 h; control for the full effect not named in the record; Potency, µM (top dose mostly 92.2 µM), inactives show at the top dose activity change, negative = less growth; 360,000 compounds, 0.21% hits; AID 651644; active = well fitted falling curve with a large enough effect; inconclusive = small, poorly fitted or top-dose-only effect; inactive = no such curve, though single readings can be large or run the other way;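 further: on the % scale 0 is the no-effect control and ±100 the full control effect; nearly all actives have a fitted effect of over 50% in size; the assay follows cell death caused by Vpr and the record does not say whether a fall means rescue or toxicity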
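Fission yeast RE007 carrying one integrated HIV-1 vpr copy, seeded at OD 0.01 in PMG+AL medium with 23 nL pinned compound. Grown 24 h at 30 degrees; viability read by BacTiter-Glo luminescence after 5 min.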
StopGo reporter – FMDV 2A StopGo reporter, luciferase signal | Potency, µM (highest dose often 57.9 µM), inactives show top-dose signal change, negative = less light | human cells with a luciferase reporter of 2A StopGo recoding; control for the full effect not named in the record | AID 1159524 | 410,000 compounds, 1.2% hits; active = well fitted falling curve with a large enough effect; inconclusive = small, poorly fitted or top-dose-only effect; inactive = no such curve, though single readings can be large or run the other way; tested in HEK293T cells; further: on the % scale 0 is the no-effect control and ±100 the full control effect; nearly all actives have a fitted effect of over 45% in size; luciferase light after 4 h
* hit, by the source's call; ? = inconclusive; · = no result given; & = joins results of further samples; [ ] = dose if it differs, or a comment. Unless noted, the call rests on the fitted dose curve; in most records, active means well fitted curve in the direction sought with a large enough effect; inconclusive means small, poorly fitted or top-dose-only effect, or another doubt; inactive means no such curve, though single readings can be large; an effect the other way counts as inactive or inconclusive. Potency means the concentration at half of the fitted maximal effect.

Values run as follows: Cruzain inh noDet	SARS PLP yeast	LASV entry inh	Cruzain inh Det	NS1 function inh	Marburg entry inh	RE007 growth inh	StopGo reporter
- CCOC(=O)N1CCN(Cc2nc3c(c(=O)[nH]c(=O)n3C)n2Cc2ccccc2C)CC1
 : 6%	1%	0%	4.4%	0%	8%	5%	-1%
- CCn1cc(CN2CCC(n3nccc3NC(=O)c3ccccc3C)CC2)cn1
 : ·	-1%	2%	·	0%	4%	2%	-10%
- Cc1cccc(NC(=O)c2cnc3sc(N4CCCC4)nn3c2=O)c1C
 : -1%	·	9%[46.1 µM]	-0.7%	·	·	·	-4%
- O=C(CCNS(=O)(=O)c1ccccc1)N1CCC(Cc2ccccc2)CC1
 : ·	?	?	·	-31%	?	11%	-14%
- Cc1nn(-c2ccccc2)c(Cl)c1/C=N/Nc1nc2ccccc2[nH]1
 : 0%	-8%	·	-4.8%	2%	0%	-5%	22%
- Cc1cc(C)nc(-n2nc(C)c3c2N(C)C(=O)CC3c2ccc(Cl)cc2)n1 (stereo unspecified)
 : ?	·	0%[46.1 µM]	-1.8%	·	1%[46.1 µM]	·	-22%
- COc1ccc(OC)c(Nc2cc(C)nc3ccccc23)c1
 : 6%	5%	-24%	1.9%	-12%	?	8%	?
- O=C1CC(c2cccs2)Cc2nc(NC(=O)C3CC3)ncc21 (stereo unspecified)
 : ·	0%	2%	·	-5%	24%	3%	-13%
- Cc1ccc(Cl)cc1NC(=O)Nc1cccc(OCc2cc(=O)n3ccccc3n2)c1
 : -9%	·	?	4.1%	·	·	·	5%
- Cc1ccc2nsnc2c1N
 : ·	-1%	9%	·	-1%	-11%	-7%	-12%
- COc1ccccc1N(C(=O)CN1C(=O)c2ccccc2S1(=O)=O)C(C(=O)NCC1CCCO1)c1ccc(F)cc1 (stereo unspecified)
 : ?	-11%	-1%&-6%	-1.3%	-25%	?	-1%	34%[activator]
- O=C(CNC(=O)c1ccc(Br)cc1)NCCc1nc2ccccc2[nH]1
 : 8%	14%	2%	-9.4%	?	2%	-13%	-2%
- Cc1cccc(NC(=O)c2ccc(COc3ccccc3[N+](=O)[O-])o2)n1
 : ·	0%	·	·	1%	·	-11%	12%
- COc1ccccc1CNC(=O)COC(=O)c1ccccn1
 : ·	1%	-3%	·	·	15%[46.1 µM]	-4%	-10%
- CCc1ccccc1NC(=O)CN1C(=O)c2ccccc2Sc2ncccc21
 : ?	·	10%[46.1 µM]	-6.3%	·	·	·	-20%
- O=S(=O)(NCCc1cn2ccccc2n1)c1ccc(-c2ccccc2)cc1
 : ·	-1%	·	·	-7%	·	2%	-17%
- COc1cccc(NS(=O)(=O)c2csc(C(N)=O)c2)c1
 : ·	3%	·	·	3%	·	12%	24%
- O=c1c(-c2n[nH]c(=S)n2-c2ccccc2)cccn1Cc1cccc(Cl)c1
 : ·	-1%	11%	·	·	?	10%	-12%
- O=C(c1cc2c(s1)CCCC2)N1CCN(C(=O)C2CCCO2)CC1 (stereo unspecified)
 : -9%	-2%	-5%	-3.6%	3%	2%	-6%	5%
- CCc1ccc(Nc2ccc(C(=O)O)cc2[N+](=O)[O-])cc1
 : ·	-5%	15%	·	-112%	?	14%	18%
- CCN(C(=O)Cn1nc(Cc2ccncc2)c2ccccc2c1=O)c1cccc(Cl)c1
 : 7%	·	-11%[46.1 µM]	-3.8%	·	-29%[46.1 µM]	·	0%
- CC(C)(C)c1cc(CN(CCO)CCO)cc(C(C)(C)C)c1O
 : 26%	-12%	-21%	-0.7%	-83%	6%	-8%	-11%
- O=C(Nc1nccs1)c1ccc(N2C(=O)C3CCCCC3C2=O)cc1 (stereo unspecified)
 : ·	1%	4%	·	0%	3%[46.1 µM]	2%	25%
- O=c1c2ccccc2sc2nc(C3CCCCC3)n(Cc3ccco3)c(=O)c12
 : -22%	-4%	10%	16µM*	-45%	-9%&-9%	2%	1%
- Cc1oc(-c2ccc(Cl)cc2)nc1CS(=O)CC(=O)N1CCN(c2cccc(C(F)(F)F)c2)CC1 (stereo unspecified)
 : ?	·	0%[46.1 µM]	-16%	·	·	·	32µM*
- CNC(=O)Cn1ncc2c(C)n(Cc3ccc(C)cc3)c(C)c2c1=O
 : 6%	-1%	1%	1.1%	2%	6%	-13%	-11%
- COc1cc2c(cc1OC)/C(=C/C(=O)c1ccc(NC(C)=O)cc1)NCC2
 : ·	-1%	?	·	4%	-26%	-5%	-16%
- COc1ccccc1N(C)S(=O)(=O)c1ccc(C(=O)OCC(=O)NCc2ccco2)cc1
 : 11%	3%	-3%	1.1%	-21%	14%	-4%	-12%
- CCC(C)NC(=O)NC(=O)N(C1CCCCC1)S(C)(=O)=O (stereo unspecified)
 : 5%	1%	-1%	2.8%	-5%	8%[46.1 µM]	29%	-17%
- COc1cc2ccccc2cc1C(=O)N1CCc2ccccc21
 : ·	-1%	-23%	·	·	?	-15%	18%
- CCn1cc(C(=O)N2CCN(c3cc(C)ccc3C)CC2)c(=O)c2cc(S(=O)(=O)N3CCCCC3)ccc21
 : -1%	·	?	-1.4%	·	0%[46.1 µM]	·	-9%
- Cn1nccc1C(=O)N1CCN(C23CC4CC(CC(C4)C2)C3)CC1
 : ·	?	-4%[46.1 µM]	·	0%	1%[46.1 µM]	-6%	-10%
- CCOC(=O)C(N)CSC1CC(=O)N(c2ccc(C(=O)OC)cc2)C1=O (stereo unspecified)
 : -3%	?	2%	2.4%	-7%	-4%	-2%	-8%
- Cc1ccc(C(=O)NCC(=O)OCc2csc(-c3ccccc3)n2)cc1
 : 12%	17%	30%	-27%	19%	25%	0%	6%
- NC1=NC[C@H](c2ccccc2)N1CCCCC1CCCCC1
 : ·	-4%	·	·	-3%	·	8%	?
- Cc1ccc(/C=C/c2onc(C)c2S(=O)(=O)N2CCC(C(=O)N3CC(C)Oc4ccccc43)CC2)cc1 (stereo unspecified)
 : -2%	·	0%[46.1 µM]	-1.1%	·	·	·	-30%
- Cc1ccc(NC(=S)N2CCN(c3nccc(C(F)(F)F)n3)CC2)c(C)c1
 : ·	3%	-5%[46.1 µM]	·	0%	-2%[46.1 µM]	-13%	-11%
- Cc1nn(Cc2ccc(Cl)cc2Cl)c(C)c1NC(=O)Cn1nc([N+](=O)[O-])c(Cl)c1C
 : 1%	·	-1%	3.4%	16%	?	1%	?
- CSc1nn(Cc2ccccc2C)c(NC(C)=O)c1S(=O)(=O)c1ccc(C)cc1
 : 22%	·	3%[46.1 µM]	-3.8%	·	·	·	-12%
- CN(C)C(CNC(=O)c1cc(S(=O)(=O)N(C)c2ccccc2)ccc1Cl)c1cccs1 (stereo unspecified)
 : ·	-5%	-29%	·	-2%	?	0%	-25%
- CCOc1ccccc1N1CCN(CC(=O)NCCc2ccc(S(N)(=O)=O)cc2)CC1
 : ·	2%	10%[46.1 µM]	·	·	9%[46.1 µM]	2%	-3%
- CSc1nsc(/C=C/Nc2ccc(F)cc2F)c1C#N
 : ·	0%	4%	·	9%	21%[46.1 µM]	3%	43%[activator]
- CCOC(=O)C1CCC(CN(Cc2ccccc2)S(=O)(=O)c2ccc(Cl)cc2)CC1 (stereo unspecified)
 : -15%	·	-30%[46.1 µM]	1.0%	·	·	·	-22%
- COc1ccc(NC(=O)CC2C(=O)N(c3cccc(OC)c3)C(=O)N2CCC2=CCCCC2)cc1 (stereo unspecified)
 : 2%	·	11µM*	-6.3%	·	?	·	-21%
- COc1cccc(OCC(=O)Nc2cc(NC(=O)COc3cccc(OC)c3)cc(C(=O)O)c2)c1
 : ·	-1%	·	·	14%	·	4%	1%
- CCn1cc2nc(SCC(=O)Nc3cc(OC)cc(OC)c3)n(Cc3ccc(Cl)cc3)c(=O)c2n1
 : 11%	·	-4%[46.1 µM]	-6.4%	·	?	·	-11%
- O=C(Nc1nc(-c2ccc(Cl)s2)cs1)c1cccs1
 : ?	-20%	?	-8.3%	-109%	-4%	?	37%[activator]
- CC1CC(C)CN(C(=O)CCNC(=O)c2ccccc2Cl)C1 (stereo unspecified)
 : ·	-3%	17%[46.1 µM]	·	-23%	12%[46.1 µM]	-21%	-5%
- CCCn1nc2cc(C(=O)NC3CCc4ccccc43)ccc2c1OCC (stereo unspecified)
 : -3%	-7%	·	-3.7%	-21%	·	6%	67%[activator]
- O=C(Nc1ccccc1-c1ccccc1)NC1CC2CCCC(C1)N2Cc1ccc(F)cc1 (stereo unspecified)
 : ·	1%	14%[46.1 µM]	·	-1%	?	-11%	-23%
- Cc1ccc2c(ccn3cc4c(c(=O)n(C)c(=O)n4C)c23)c1
 : ·	0%	?	·	5%	?	-3%	-15%
- CCCc1nnc(SCc2cc(=O)c3c(C)cc(C)cc3[nH]2)n1C
 : -1%	·	10%[46.1 µM]	1.2%	·	·	·	9%
- CCOC(=O)Cn1c(=NC(=O)CN2C(=O)CCC2=O)sc2cc(S(N)(=O)=O)ccc21
 : -1%	-17%	18%	-3.0%	6%	-12%	-4%	-7%
- O=C(O)CCSc1nnc(-c2ccncc2)n1-c1ccccc1
 : -3%	11%	-13%	-2.1%	23%	14%[46.1 µM]	0%	-8%
- COc1ccc(C2Nc3ccccc3C(=O)N2Cc2ccco2)cc1COc1ccc(NC(C)=O)cc1 (stereo unspecified)
 : ?	8%	?	-12%	13µM*	?	27%	-19%
- CC1=C(C(=O)Nc2cccnc2)C(c2cccnc2)n2ncnc2N1 (stereo unspecified)
 : 5%	0%	3%	-2.4%	9%	5%	-9%	-21%
- COc1ccc(NC(=O)CC2Oc3ccc(C)cc3NC2=O)cc1Cl (stereo unspecified)
 : -8%	·	·	1.8%	·	-9%[46.1 µM]	·	-3%
- CCOc1ccc(NC(=O)c2ccc(CNc3c(N4CCCC4)c(=O)c3=O)cc2)cc1
 : ·	1%	·	·	-32%	·	5%	23%
